Source: PubChem
Menin-MLL FL inh: displaces fluorescein MLL peptide from human menin; 290,000 tested, under 10 active; Fluorescence polarization, fluorescein-MLL peptide displacement from menin; FP activity change, % at 61.4 µM; inconclusive = falling polarisation curve, or a change in total fluorescence; inactive = total fluorescence flat and polarisation flat or rising; no compound was filed as active; the % refers to the polarisation; negative = inhibition;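 note: % of control where 0% means no effect; inhibitors lower the polarisation; unlabelled MLL peptide was the positive control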
gsp antag: antagonists of gsp mutant (McCune-Albright syndrome) | AID 624288 | Potency, µM (highest dose often 76.9 µM), without a hit: top-dose activity change, negative = inhibition, most hits filed as inhibitors | gsp-mutant cells, cAMP HTRF, 30 min; control for the full effect not named in the record | 340,000 compounds, 0.4% hits; active = falling curve of any shape with a large fitted effect; inconclusive = falling curve, mostly with a smaller effect; inactive = flat or rising curve; cell line not stated here;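 note: intracellular cAMP measured with PDE inhibitor Ro 20-1724 present during compound exposure; potency is the fitted concentration of half-maximal effect; % is set by controls: 0 for no effect and ±100 for the full control effect; nearly all actives have a fitted effect of over 65% in size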
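Cells in G418 medium, seeded 16-24 h, 37C; buffer exchange to DPBS + 1 mM CaCl2, 0.5 mM MgCl2, 0.05% BSA; cpds in DMSO + […] (300 uM stock), 30 min 37C; HTRF cAMP detection.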
TRPV1 PAM: human TRPV1 potentiation | Q8NER1 | TRPV1-expressing cells, Fluo-8 calcium influx, capsaicin EC20 potentiation; host cell line not named in the record; control for the full effect not named in the record | potentiation, % at 8.33 µM | 320,000 compounds, 0.02% hits | AID 540277; active means potentiation above 80%; inconclusive means 30% to 80%; inactive means below 30%; note: 0% is about no effect
Target sequence (Q8NER1 whole entry, looked up): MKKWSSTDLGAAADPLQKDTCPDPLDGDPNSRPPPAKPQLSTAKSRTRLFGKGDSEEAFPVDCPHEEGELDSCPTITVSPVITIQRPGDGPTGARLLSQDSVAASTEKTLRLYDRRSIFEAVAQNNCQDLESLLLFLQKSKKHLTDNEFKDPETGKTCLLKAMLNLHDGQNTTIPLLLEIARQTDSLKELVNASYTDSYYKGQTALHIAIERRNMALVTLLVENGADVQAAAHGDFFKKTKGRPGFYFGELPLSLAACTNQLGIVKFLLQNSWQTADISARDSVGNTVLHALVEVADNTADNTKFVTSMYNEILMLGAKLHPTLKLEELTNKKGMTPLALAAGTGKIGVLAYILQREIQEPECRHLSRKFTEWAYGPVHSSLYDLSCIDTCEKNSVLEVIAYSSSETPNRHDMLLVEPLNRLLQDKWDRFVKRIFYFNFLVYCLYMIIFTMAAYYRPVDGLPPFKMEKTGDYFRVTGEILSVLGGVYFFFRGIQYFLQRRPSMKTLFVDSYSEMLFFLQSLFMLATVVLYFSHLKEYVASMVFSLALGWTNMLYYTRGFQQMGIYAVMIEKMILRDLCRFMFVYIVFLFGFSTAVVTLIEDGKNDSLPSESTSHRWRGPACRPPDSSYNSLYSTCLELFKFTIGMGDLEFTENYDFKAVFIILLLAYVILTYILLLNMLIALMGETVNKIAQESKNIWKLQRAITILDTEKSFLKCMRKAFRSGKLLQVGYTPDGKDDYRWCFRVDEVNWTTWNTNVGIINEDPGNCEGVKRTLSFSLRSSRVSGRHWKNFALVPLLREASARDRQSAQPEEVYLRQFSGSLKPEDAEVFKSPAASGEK
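TRPV1-expressing cells were cultured overnight at 35.5C and loaded with Fluo-8 calcium dye for 40 to 90 min at room temperature. After a 10 s baseline, compound was added and calcium influx was read kinetically for 3 min (ex 480/em 520 nm).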
ClpP mod: qHTS Assay for Activators of ClpP | purified B. subtilis ClpP, FRET peptide cleavage, 20 min | Potency, µM (series often up to 57.5 µM), for the others: at the top dose activity change, negative = active | 340,000 compounds, 1.9% hits | AID 651965, 2013; active = well fitted falling curve with a large enough effect; inconclusive = small, poorly fitted or top-dose-only effect; inactive = no such curve, though single readings can be large or run the other way; note: potency is the fitted concentration of half-maximal effect; the source files actives as falling curves though it sought activators and does not explain the sign; nearly all actives have a fitted effect of over 65% in size; many hits overshoot -100%
Target sequence (P80244 whole entry, looked up): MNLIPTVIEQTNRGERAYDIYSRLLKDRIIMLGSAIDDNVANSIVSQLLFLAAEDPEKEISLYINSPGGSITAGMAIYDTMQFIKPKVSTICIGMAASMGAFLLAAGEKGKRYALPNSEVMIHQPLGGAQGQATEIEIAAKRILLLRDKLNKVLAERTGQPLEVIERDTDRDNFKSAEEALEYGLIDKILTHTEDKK
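Buffer: 100 mM Tris/HCl pH8, 100 mM KCl, 0.05% low protease BSA, 2.5% glycerol, 0.01% Tween-20. ClpP 10 microg/mL final; 20 min RT; delta FRET normalized to ADEP and DMSO controls.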
TRPML1 inh: human mucolipin-1 channel inhibition. TRPML1-inducible cells, Ca2+ dye fluorescence, FDSS; hits give low values; inhibition of EC80 agonist-evoked calcium signal. activity change, negative = inhibition, % (concentration not given with the values). 390,000 compounds, 0.02% hits. AID 624415; in the data active means activity change below about -50%; inconclusive means about -30% to -50%; inactive means above about -30%;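 note: stimulus is agonist 54-4 at its EC80 concentration; % is set by controls: 0 for no effect and ±100 for the full control effect; the text of the record puts the active cut at -80%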
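TRPML1-DL cells, Tet-induced overnight (~16 h, 37 °C) at 1,500 cells/well, were loaded with Ca8 no-wash dye plus quencher for 45-90 min at room temperature. Compounds were pinned during FDSS kinetic reading; agonist 54-4 at EC80 (4 uM final) then added.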
Sfp inh: inhibitors of Bacillus subtilis Sfp phosphopantetheinyl transferase | Potency, µM, for the others: max response, negative = inhibition, most hits filed as inhibitors | 310,000 compounds, 3.5% hits | Q9F4F7 | Biochemical Sfp PPTase activity, qHTS; active = well fitted inhibition curve with a large enough effect; inconclusive = small, poorly fitted or top-dose-only effect, or another doubt; inactive = no such curve, though single readings can be large or run the other way;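 note: the enzyme is Sfp with the accession as filed and its product quenches rhodamine fluorescence; potency is the fitted concentration of half-maximal effect; 0% = enzyme reaction without inhibitor and -100% = no enzyme wells; top concentration of the series not given in the record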
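After 15 min at room temperature with compound, 15 nM Sfp received 5 uM rhodamine-CoA plus 12.5 uM BHQ-2-ybbR (50 mM Hepes pH 7.6, 10 mM MgCl2). Rate came from the fluorescence difference over 30 min, ex 525/em 598 nm.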
gsp agonist: activates gsp, the McCune-Albright syndrome mutation; gsp mutant cells, cAMP HTRF, 30 min; control for the full effect not named in the record; 340,000 compounds, 0.13% hits; Potency, µM (highest dose often 76.9 µM), for inactives: top-dose activation (cAMP increase), usual class: activators; AID 624287; active = well fitted activation curve with a large enough effect; inconclusive = small, poorly fitted or top-dose-only effect, or another doubt; inactive = no such curve, though single readings can be large or run the other way; cell line not stated here;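 note: phosphodiesterase inhibitor Ro 20-1724 added with compounds to block cAMP breakdown; potency is the fitted concentration of half-maximal effect; nearly all actives have a fitted effect of over 60% in size; about a fifth of the inactives were tested at one dose only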
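Cells stably selected in G418 were plated at 2000/well, grown 16-24 hr, then given compounds in DMSO with the PDE inhibitor […] (300 uM solution added) for 30 min at 37C; cAMP was read by HTRF.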
* marks the source's active call; other numbers are inactive results; ? = inconclusive; · = no result given; [ ] = dose if it differs, or a comment.

Letter code – A = Menin-MLL FL inh; B = gsp antag; C = TRPV1 PAM; D = ClpP mod; E = TRPML1 inh; F = Sfp inh; G = gsp agonist
[1] CN(C)S(=O)(=O)c1cccc(C(=O)Nc2ccccc2C(=O)NC2CC2)c1
  A = ·; B = -7%; C = ·; D = -43%; E = 19; F = ·; G = 11%
[2] CCOC(=O)C=Cc1ccc(C(=O)OCC)[nH]1
  A = ·; B = ·; C = ·; D = -3.2%; E = 11; F = ·; G = -47%[inhibitor]
[3] COc1ccc(CNS(=O)(=O)c2ccc(-c3ccc(=O)[nH]n3)o2)cc1
  A = ·; B = 2%; C = -5; D = 1.2%; E = -7; F = -4%; G = 11%
[4] CC1C(=O)CCN(C(C)(C)C)C1C (stereo not drawn)
  A = 5.4; B = -7%; C = -5; D = -4.0%; E = -1; F = 19%; G = 4%
[5] CCCCn1c(N)c(N(CCOC)C(=O)COC(=O)C(C)(C)Oc2ccc(Cl)cc2)c(=O)[nH]c1=O
  A = ·; B = 11%; C = 5; D = 0.6%; E = 3; F = ·; G = -23%
[6] CSCCC(C(=O)OC1CCOC1=O)N1C(=O)c2ccccc2C1=O (stereo not drawn)
  A = -1.3; B = -22%; C = -5; D = -0.5%; E = 7; F = 9%; G = 1%
[7] O=C(NC(C(=O)N/N=C/c1ccncc1)c1n[nH]c(=O)c2ccccc12)c1ccccc1 (stereo not drawn)
  A = -4.3; B = 14%; C = 7; D = ·; E = -11; F = 11%; G = 2%[15.4 µM]
[8] O=C(NCC1COc2ccccc2O1)C1C2C=CC3(CN(Cc4ccccc4Cl)C(=O)C13)O2 (stereo not drawn)
  A = -2.3; B = -2%; C = 4; D = -2.4%; E = -1; F = -4%; G = 6%
[9] Cc1cc(C)n(-c2nc3ccccc3nc2N2CCN(S(=O)(=O)c3cccc(C#N)c3)CC2)n1
  A = -4.4; B = -12%; C = -8; D = ·; E = -12; F = 7%; G = 15%
[10] Cc1cc(-n2c(C)cc(C(=S)N3CCOCC3)c2C)ccc1Br
  A = 7.6; B = -14%; C = -23; D = -3.5%; E = 35; F = -27%; G = 1%

In the list so far, two have a Cl atom.
Letter code – A = Menin-MLL FL inh; B = gsp antag; C = TRPV1 PAM; D = ClpP mod; E = TRPML1 inh; F = Sfp inh; G = gsp agonist
[5] CCCCn1c(N)c(N(CCOC)C(=O)COC(=O)C(C)(C)Oc2ccc(Cl)cc2)c(=O)[nH]c1=O
  A = ·; B = 11%; C = 5; D = 0.6%; E = 3; F = ·; G = -23%
[8] O=C(NCC1COc2ccccc2O1)C1C2C=CC3(CN(Cc4ccccc4Cl)C(=O)C13)O2 (stereo not drawn)
  A = -2.3; B = -2%; C = 4; D = -2.4%; E = -1; F = -4%; G = 6%

Further entries
Letter code – A = Menin-MLL FL inh; B = gsp antag; C = TRPV1 PAM; D = ClpP mod; E = TRPML1 inh; F = Sfp inh; G = gsp agonist
[11] CCCC(c1nnnn1CCOC)N1CCN(Cc2ccccc2)CC1 (stereo not drawn)
  A = 3.2; B = 5%; C = -4; D = -0.9%; E = -12; F = -3%; G = 10%
[12] CCOc1ccc(C2C=C(c3ccccc3)Nc3nnnn32)cc1 (stereo not drawn)
  A = ?; B = -18%; C = -26; D = ?; E = 15; F = -28%; G = 15%
[13] O=C(NCc1ccccc1)c1cc(-c2cccc(O)c2)on1
  A = -3.7; B = 7%; C = 5; D = -0.8%; E = 19; F = 7%; G = -16%
[14] COc1ccccc1C1CCN(C(=O)c2cccc([N+](=O)[O-])c2)CC1
  A = 3.1; B = -2%; C = ·; D = ·; E = 13; F = 8%; G = 11%[15.4 µM]
[15] Cc1ccc(-c2nc3c(c(=O)c4ccccc4n3C)c(=O)n2-c2ccc(F)cc2)cc1
  A = 4.8; B = 28%; C = 9; D = ·; E = 9; F = 21%; G = ?
[16] COc1ccc(N=C2S/C(=C\c3cc(C)n(C)c3C)C(=O)N2CC(C)C)cc1
  A = 16; B = -13%; C = -25; D = -2.6%; E = 6; F = -9%; G = -41%[inhibitor]
[17] O=C/C=C/c1coc2ccc3ccccc3c2c1=O
  A = ?; B = -5%; C = 6; D = -0.5%; E = 22; F = 22%; G = -1%
[18] C/C(CCN1CCCCc2nc(C)c(C)cc21)=N\O[C@H](C)c1cn([C@H](CO)Cc2ccccc2)nn1
  A = 3.8; B = ·; C = -10; D = ·; E = ·; F = -9%; G = ·
[19] C/C(=N\NC(=O)c1cccc(S(=O)(=O)N2CCCC2)c1)c1ccc(F)cc1
  A = ·; B = -5%; C = -14; D = 1.0%; E = 8; F = ·; G = -34%[inhibitor]
[20] C=CCOC(=O)C1=C[C@@H](c2csc3ccccc23)[C@H](CCCO)[C@@H](OCC)O1
  A = ·; B = -14%; C = ·; D = -3.9%; E = -9; F = ·; G = ·
[21] Cc1cc(C)nc(Sc2nc(Cl)nc(N(c3ccccc3)c3ccccc3)n2)n1
  A = -0.9; B = 5%; C = -11; D = -3.1%; E = -19; F = 25µM*; G = 2%[15.4 µM]
[22] CC(C)CCn1c(N2CCOCC2)nc2c1c(=O)n(CC(N)=O)c(=O)n2C
  A = -0.6; B = -9%; C = -15; D = -5.0%; E = -6; F = 7%; G = -14%
[23] C=C1N(C)c2cc([N+](=O)[O-])c(N)cc2C1(C)C
  A = -3.2; B = 28µM*; C = 3; D = ·; E = -9; F = -12%; G = -11%[15.4 µM]
[24] CN(CC(=O)Nc1ccccc1C(=O)Nc1ccccc1)C1CCCCC1
  A = ·; B = -11%; C = ·; D = 0.4%; E = -1; F = ·; G = -1%
[25] Cc1sc2ncnc(NCC(C)(C)N3CCOCC3)c2c1C
  A = -0.6; B = -9%; C = 2; D = -1.4%; E = 20; F = 9%; G = -1%
[26] O=C1c2ccccc2-c2c1nc1c([n+]2[O-])CCCC1
  A = 1.6; B = 3%; C = 4; D = 0.6%; E = -4; F = -4%; G = -4%
[27] Cc1c(C#N)c(NC(=O)c2cccc(Cl)c2)n(Cc2ccccc2)c1C
  A = 18; B = -17%; C = 18; D = 0.1%; E = 4; F = -20%; G = ?
[28] O=NN(CCc1ccncc1)c1ccc(OCc2ccccc2)cc1
  A = 3.3; B = -12%; C = -1; D = ·; E = -5; F = ?; G = -9%[15.4 µM]
[29] CC(=O)NC(c1cccs1)c1cc([N+](=O)[O-])c2cccnc2c1O (stereo not drawn)
  A = 5.9; B = -15%; C = 16; D = -5.6%; E = 8; F = 1µM*; G = 3%
[30] Cc1nc2ccc(Br)cn2c1C(=O)N/N=C\c1ccccc1[N+](=O)[O-]
  A = 2.2; B = 10%; C = 3; D = ·; E = 8; F = 11%; G = 11%[15.4 µM]

Rewritten with tabs: twelve of the compounds above.
item	mol	Menin-MLL FL inh	gsp antag	TRPV1 PAM	ClpP mod	TRPML1 inh	Sfp inh	gsp agonist
16	COc1ccc(N=C2S/C(=C\c3cc(C)n(C)c3C)C(=O)N2CC(C)C)cc1	16	-13%	-25	-2.6%	6	-9%	-41%[inhibitor]
17	O=C/C=C/c1coc2ccc3ccccc3c2c1=O	?	-5%	6	-0.5%	22	22%	-1%
18	C/C(CCN1CCCCc2nc(C)c(C)cc21)=N\O[C@H](C)c1cn([C@H](CO)Cc2ccccc2)nn1	3.8	·	-10	·	·	-9%	·
19	C/C(=N\NC(=O)c1cccc(S(=O)(=O)N2CCCC2)c1)c1ccc(F)cc1	·	-5%	-14	1.0%	8	·	-34%[inhibitor]
20	C=CCOC(=O)C1=C[C@@H](c2csc3ccccc23)[C@H](CCCO)[C@@H](OCC)O1	·	-14%	·	-3.9%	-9	·	·
21	Cc1cc(C)nc(Sc2nc(Cl)nc(N(c3ccccc3)c3ccccc3)n2)n1	-0.9	5%	-11	-3.1%	-19	25µM*	2%[15.4 µM]
22	CC(C)CCn1c(N2CCOCC2)nc2c1c(=O)n(CC(N)=O)c(=O)n2C	-0.6	-9%	-15	-5.0%	-6	7%	-14%
23	C=C1N(C)c2cc([N+](=O)[O-])c(N)cc2C1(C)C	-3.2	28µM*	3	·	-9	-12%	-11%[15.4 µM]
24	CN(CC(=O)Nc1ccccc1C(=O)Nc1ccccc1)C1CCCCC1	·	-11%	·	0.4%	-1	·	-1%
25	Cc1sc2ncnc(NCC(C)(C)N3CCOCC3)c2c1C	-0.6	-9%	2	-1.4%	20	9%	-1%
26	O=C1c2ccccc2-c2c1nc1c([n+]2[O-])CCCC1	1.6	3%	4	0.6%	-4	-4%	-4%
27	Cc1c(C#N)c(NC(=O)c2cccc(Cl)c2)n(Cc2ccccc2)c1C	18	-17%	18	0.1%	4	-20%	?

Other compounds.
Letter code – A = Menin-MLL FL inh; B = gsp antag; C = TRPV1 PAM; D = ClpP mod; E = TRPML1 inh; F = Sfp inh; G = gsp agonist
[31] O=C(COc1ccccc1)Nc1nc(-c2ccncc2)cs1
  A = ·; B = -4%; C = -11; D = -3.2%; E = 38; F = 50µM*; G = -4%[15.4 µM]
[32] COc1ccc(-n2nc3c(c2NC(=O)c2ccccc2S(=O)(=O)C(F)F)CS(=O)(=O)C3)cc1
  A = ·; B = -7%; C = 25; D = 0.2%; E = -1; F = 10%; G = 6%[15.4 µM]
[33] O=[N+]([O-])c1ccc(S(=O)(=O)Nc2ccncc2)cc1
  A = 0.1; B = 6%; C = 6; D = 1.1%; E = -1; F = 8%; G = -12%[15.4 µM]
[34] COC(=O)C1(C)NC(c2ccc(O)cc2)C2C(=O)N(c3ccccc3)C(=O)C21 (stereo not drawn)
  A = 7.0; B = -12%; C = 8; D = -1.4%; E = 11; F = 6%; G = 13%

No enrichment for hits; overall some 4.9% were active at least once.
